# Screens (PubChem)
# MenB inh: inhibitors of Mycobacterium tuberculosis MenB enzyme; P9WNP5; inhibition, %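 (about 12 µg/mL by stock and volumes)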; actives 0.43% (n = 100,000); MenB enzyme assay, absorbance read-out; some hits fall short of the stated cut;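 active means mean of two replicates above 30%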;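 further: 0% = no compound and 100% = wells with inactive enzyme; the first replicate is given; strong numbers were not always called active; inactives centre near -10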
# Target sequence (P9WNP5 whole entry, looked up): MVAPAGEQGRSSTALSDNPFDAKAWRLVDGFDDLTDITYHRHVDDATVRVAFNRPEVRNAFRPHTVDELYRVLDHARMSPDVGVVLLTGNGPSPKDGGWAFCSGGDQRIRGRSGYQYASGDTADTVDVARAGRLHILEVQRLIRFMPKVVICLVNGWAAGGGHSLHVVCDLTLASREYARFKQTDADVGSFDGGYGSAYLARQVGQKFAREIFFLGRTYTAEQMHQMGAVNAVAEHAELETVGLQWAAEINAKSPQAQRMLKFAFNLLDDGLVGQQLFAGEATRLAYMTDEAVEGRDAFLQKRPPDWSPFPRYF
# PV pol inh: poliovirus RNA polymerase inhibition; P03300; % elongation, % (compound at 16.7 µg/mL); actives 0.66% (n = 150,000); poliovirus polymerase elongation, fluorescence polarization; hits give low values; in the data active means % elongation below about 90%; further: some results filed as inactive read as strong as hits
# MbtI inh: inhibitors of Mycobacterium tuberculosis siderophore enzyme MbtI | inhibition, %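 (about 17 µg/mL by stock and volumes)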 | purified MbtI enzyme, fluorescence intensity read-out | actives 0.89% (n = 100,000) | P9WFX0;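 active means above 50% in both replicates, above 80% if mildly self-fluorescent; inactive means the rest, strongly fluorescent compounds included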;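 further: 0% = mean of negative and 100% = mean of positive controls; one replicate is shown; some compounds called inactive have numbers as strong as hits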
# Target sequence (P9WFX0 whole entry, looked up): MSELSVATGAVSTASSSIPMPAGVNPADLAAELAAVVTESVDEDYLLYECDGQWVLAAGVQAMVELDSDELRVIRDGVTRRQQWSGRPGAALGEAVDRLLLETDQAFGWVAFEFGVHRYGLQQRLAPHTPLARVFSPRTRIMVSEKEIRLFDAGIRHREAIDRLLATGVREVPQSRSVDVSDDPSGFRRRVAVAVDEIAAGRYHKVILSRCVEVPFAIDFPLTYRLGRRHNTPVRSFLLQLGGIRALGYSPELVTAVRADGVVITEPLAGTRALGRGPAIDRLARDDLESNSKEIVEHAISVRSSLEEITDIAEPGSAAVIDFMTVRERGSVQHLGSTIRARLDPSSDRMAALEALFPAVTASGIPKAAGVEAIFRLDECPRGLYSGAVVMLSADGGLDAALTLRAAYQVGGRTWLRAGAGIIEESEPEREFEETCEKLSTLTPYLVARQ
# PV pol inh intensity: recorded beside PV pol inh, whose call it bears; % elongation; measured here: total intensity read-out; formula for this scale not given here;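 total fluorescence in place of polarization; lower means less elongation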
# Active calls of the source: *; i = inactive; · = not tested or not shown; & = joins results of further samples. Not a hit list; overall some 2% were active at least once.
# Field names: A = MenB inh; B = PV pol inh; C = PV pol inh intensity; D = MbtI inh
NC1=NC(=O)C(CC(=O)OCC(=O)Nc2cc(Cl)cc(Cl)c2)S1 (stereo unspecified)
  A: -19	B: 110	C: 108	D: 2
CCn1c(CN2CCCCCC2=O)nnc1SCc1cnc(-c2ccccc2)s1
  A: -14	B: 99	C: 103	D: -4
C=CCNC(=O)CN1CCN(S(=O)(=O)c2ccc(C(C)CC)cc2)CC1 (stereo unspecified)
  A: -37	B: 102	C: 100	D: -10
Cc1cc2c(cc1S(=O)(=O)NCCCc1ccccc1)OCC(=O)N2
  A: -18	B: 104	C: 101	D: -6
COc1ccc(C(C#Cc2ccccc2)N2CCOCC2)cc1 (stereo unspecified)
  A: ·	B: 103	C: 107	D: 3
Cc1ccc(NC(=O)Nc2ccccn2)cc1
  A: -62	B: 100	C: 103	D: -5
Cc1c(OCc2nnc(SCC(=O)Nc3nnc(C4CC4)s3)n2C)ccc2ccccc12
  A: 6	B: 102	C: 103	D: -3
CCN(CC)C(=S)SC(=O)c1ccccc1Cl
  A: ·	B: 102	C: 101	D: -7
Cc1ccc(/C=C/C(=O)O)cc1
  A: ·	B: 103	C: 108	D: 8
COc1ccccc1/C=C\C=c1/sc2nc(-c3ccco3)nn2c1=O
  A: -13	B: 105	C: 104	D: 5
O=C(Cn1cnc2onc(-c3ccc(Cl)cc3)c2c1=O)NCCCN1CCCC1
  A: 1	B: 101	C: 103	D: -2
Cc1ccc2c(CNCC(C)(C)CN(C)C)cc(=O)oc2c1
  A: -25	B: 102	C: 103	D: -11
CCC(CC)c1nnc(NC(=O)CCc2c(C)noc2C)s1
  A: -23	B: 101	C: 93	D: 3
O=C(/C=C/c1cn(-c2ccccc2)nc1-c1ccc(F)cc1)NCc1ccco1
  A: -18	B: 101	C: 110	D: 55
CCOC(=O)C1CCN(C(=O)COC(=O)c2ccc(C)cc2)CC1
  A: -14	B: 99	C: 109	D: -16
CCN(CC)C(=O)/C=C/c1cccs1
  A: ·	B: 105	C: 97	D: 14
O=C(O)c1ccc(Sc2ccccn2)o1
  A: -2	B: 100	C: 106	D: ·
CC1=CC(C)(C)NC(=O)N1c1ccccc1
  A: -5	B: 105	C: 112	D: ·
O=c1c2ccccc2c(-c2ccccc2)nn1-c1ccccc1
  A: -16	B: 101	C: 105	D: ·
Cc1ccc(CNC(=O)CSC2=Nc3ccccc3C3=NC(Cc4ccccc4)C(=O)N23)cc1 (stereo unspecified)
  A: -16	B: 99	C: 96	D: 72
CCN1C(=O)C(=Cc2cccn2C)C(=O)N(CC)C1=S
  A: -28	B: 103	C: 102	D: -12
Cc1ccccc1Nc1nnc(SCC(=O)Nc2cc(C(C)C)no2)s1
  A: -25	B: 111	C: 109	D: -3
Cc1ccnc(NC(=O)CCc2nnc3ccc(NCc4ccc(F)cc4)nn23)c1
  A: -11	B: 101	C: 100	D: 37
Oc1ccc(C(c2ccc(O)cc2)(C(F)(F)F)C(F)(F)F)cc1
  A: -19	B: 109	C: 103	D: ·
CCCCn1c(=O)n(C)c(=O)c2ccc(-c3ccc(Cl)cc3)nc21
  A: -8	B: 100	C: 104	D: 22

# 14 successive entries out of the list so far:
# Field names: A = MenB inh; B = PV pol inh; C = PV pol inh intensity; D = MbtI inh
NC1=NC(=O)C(CC(=O)OCC(=O)Nc2cc(Cl)cc(Cl)c2)S1 (stereo unspecified)
  A: -19	B: 110	C: 108	D: 2
CCn1c(CN2CCCCCC2=O)nnc1SCc1cnc(-c2ccccc2)s1
  A: -14	B: 99	C: 103	D: -4
C=CCNC(=O)CN1CCN(S(=O)(=O)c2ccc(C(C)CC)cc2)CC1 (stereo unspecified)
  A: -37	B: 102	C: 100	D: -10
Cc1cc2c(cc1S(=O)(=O)NCCCc1ccccc1)OCC(=O)N2
  A: -18	B: 104	C: 101	D: -6
COc1ccc(C(C#Cc2ccccc2)N2CCOCC2)cc1 (stereo unspecified)
  A: ·	B: 103	C: 107	D: 3
Cc1ccc(NC(=O)Nc2ccccn2)cc1
  A: -62	B: 100	C: 103	D: -5
Cc1c(OCc2nnc(SCC(=O)Nc3nnc(C4CC4)s3)n2C)ccc2ccccc12
  A: 6	B: 102	C: 103	D: -3
CCN(CC)C(=S)SC(=O)c1ccccc1Cl
  A: ·	B: 102	C: 101	D: -7
Cc1ccc(/C=C/C(=O)O)cc1
  A: ·	B: 103	C: 108	D: 8
COc1ccccc1/C=C\C=c1/sc2nc(-c3ccco3)nn2c1=O
  A: -13	B: 105	C: 104	D: 5
O=C(Cn1cnc2onc(-c3ccc(Cl)cc3)c2c1=O)NCCCN1CCCC1
  A: 1	B: 101	C: 103	D: -2
Cc1ccc2c(CNCC(C)(C)CN(C)C)cc(=O)oc2c1
  A: -25	B: 102	C: 103	D: -11
CCC(CC)c1nnc(NC(=O)CCc2c(C)noc2C)s1
  A: -23	B: 101	C: 93	D: 3
O=C(/C=C/c1cn(-c2ccccc2)nc1-c1ccc(F)cc1)NCc1ccco1
  A: -18	B: 101	C: 110	D: 55

# (further entries)
# Field names: A = MenB inh; B = PV pol inh; C = PV pol inh intensity; D = MbtI inh
CCCC1COC(c2ccc(C#N)cc2)OC1 (stereo unspecified)
  A: -1	B: 99	C: 101	D: -8
O=C(Nc1ccccc1)C(=S)NCc1ccco1
  A: -21	B: 102	C: 101	D: 3
c1cnc2cc(Oc3ccc4nccnc4c3)ccc2n1
  A: -7	B: 103	C: 104	D: 8
CCn1c(=N)n(CCCOc2ccc(Br)cc2)c2ccccc21
  A: -44	B: 99	C: 104	D: 1
CCOc1cc2sc(N3CCC(C(=O)N(C)Cc4ccccc4)CC3)nc2cc1Br
  A: 0	B: 103	C: 105	D: 10
O=P1(c2ccccc2O)COc2ccccc2OC1
  A: -20	B: 101	C: 101	D: -13
O=C(NC1CCN(c2nc(-c3ccccc3)cs2)CC1)c1cccs1
  A: -72	B: 105	C: 104	D: -2
CN(C)Cn1c(O)c(N=NC(=O)CO/N=C/c2ccccc2)c2ccccc21
  A: -12	B: 103	C: 101	D: 4
O=C(CN1CCN(CC(=O)N2CCCC2)CC1)NC(=O)Nc1ccccc1F
  A: 8	B: 104	C: 97	D: 3
COC(=O)C(C)Nc1ccc(C)cc1 (stereo unspecified)
  A: 2	B: 103	C: 104	D: 1
Fc1ccc(Nc2nc3ccccc3o2)c(F)c1
  A: -17	B: 111	C: 106	D: ·
CC1(c2ccc3c(c2)OCO3)NC(=O)N(CC(=O)c2ccc3c(c2)CCC3)C1=O (stereo unspecified)
  A: -11	B: 106	C: 118	D: 0
CCn1c(=O)c(CNc2ccc(N3CCC(O)CC3)cc2)cc2cc(OC)ccc21
  A: -12	B: 104	C: 101	D: -50
CC1(C)OCC(C2OC(=O)C3OC(C)(C)OC32)O1 (stereo unspecified)
  A: -13	B: 106	C: 105	D: ·
CC(C)NC(=O)COc1ccc2c(c1)C(=O)CC(C)(C)O2
  A: -3	B: 101	C: 105	D: 108
O=C1/C(=C/c2ccc(N3CCOCC3)cc2)COc2ccccc21
  A: -27	B: 158	C: 187	D: -2
CCN(CC)c1ccc2cc(-c3csnn3)c(=O)oc2c1
  A: -15	B: 90	C: 191	D: 5
CN(C(=O)COC(=O)c1ccc(C#N)cc1)c1ccccc1
  A: ·	B: 101	C: 98	D: 1
CC(C)(C)c1ccc(C(=O)N2CCN(c3cccc4[nH]ccc34)CC2)cc1
  A: -19	B: 103	C: 96	D: -8
S=P12CN3CN(CN(C3)C1)C2
  A: -5	B: 100	C: 104	D: -2
CCCCC1CCC(C(=O)N2CC(C(N)=O)Oc3ccccc32)CC1 (stereo unspecified)
  A: -22	B: 101	C: 96	D: -5
CC1Oc2ccccc2OC1(O)c1ccc(Br)cc1 (stereo unspecified)
  A: -3	B: 101	C: 106	D: ·
COc1cc(N(C(=O)c2ccco2)C(C(=O)NC2CCCC2)c2ccc(C)cc2)ccc1-n1cnnn1 (stereo unspecified)
  A: 34	B: 100	C: 102	D: -8
Oc1ccc2ccccc2c1C=Nc1ccccc1
  A: ·	B: 114	C: 115	D: 13
Cc1ccccc1CSCc1nnc(-c2ccccc2)o1
  A: -7	B: 103	C: 109	D: 11

# New compounds follow.
canonical_smiles	MenB inh	PV pol inh	PV pol inh intensity	MbtI inh
CC1CC(=O)Nc2ccccc2N1C(=O)CSc1nnc(COc2ccccc2Cl)n1C1CC1 (stereo unspecified)	0	103	98	2
O=C(C1CC1c1ccccc1)N1CCOCC1 (stereo unspecified)	10	99	101	-4
CCN(C(=O)C(C)Sc1nc(C)cs1)c1ccccc1 (stereo unspecified)	-8	99	92	21
O=C(O)CCC(=O)c1ccc(Br)cc1	·	90*	81*	-11
CCOC(=O)CSc1nc2ccccc2n2cnnc12	-5	103	116	5
O=C(Cn1c(=O)c2cccn2c2ccccc21)NCCCN1CCCCC1	10	102	99	5
O=C(/C=C/c1cc(Cl)c2c(c1)OCCO2)N1CCCN(S(=O)(=O)c2ccc(F)cc2)CC1	-9	97	102	20
C=CCNc1oc(CC(C)C)nc1C#N	-14	106	107	·
CCOC(=O)C1CCN(c2ccc3nncn3n2)CC1	-6	99	102	5
O=C1/C(=C/c2cccc(Cl)c2)CC/C1=C\c1cccc(Cl)c1	-6	101	114	-2
CCN(CC(=O)NCc1cccs1)C(=O)C1=COCCO1	-7	104	95	-3
CCC(C)NCc1ccc(C(=O)OC)o1 (stereo unspecified)	-15	106	102	·
CC1CN(S(=O)(=O)c2ccc(C(=O)N3CCc4ccccc43)cc2)CC(C)O1 (stereo unspecified)	-23	109	113	-6
CC1OC(=O)C(C(C)C)NC(=O)C(C(C)C)OC(=O)C(C(C)C)NC(=O)C(C)OC(=O)C(C(C)C)NC(=O)C(C(C)C)OC(=O)C(C(C)C)NC(=O)C(C)OC(=O)C(C(C)C)NC(=O)C(C(C)C)OC(=O)C(C(C)C)NC1=O (stereo unspecified)	-9	104&101	105&103	2
CCC(C)(C)NC(=O)Cc1ccc(C)cc1	-30	102	103	-17

# (continued)
canonical_smiles	MenB inh	PV pol inh	PV pol inh intensity	MbtI inh
CC(=O)N1CC2c3ccccc3CCN2C1c1ccccc1 (stereo unspecified)	4	105	108	·
CCN(CC)S(=O)(=O)c1ccc2c(c1)nc(SCC(=O)Nc1cccc(C)c1C)n2CC	-27	92	57	13
CC(C)OC(=O)CN1C(=O)C(C)(C)Oc2ccc(C(=O)Nc3ccccc3)cc21	25*	103	101	0
CC1=CCC2C(=O)N(C(C)c3ccccc3)C(=O)C2C1 (stereo unspecified)	-6	101	104	-5
O=C(/C=C/c1cccs1)N1CCN(Cc2ccc(Br)s2)CC1	3	101	95	11
CCN(CC)C(=S)SCc1cc(=O)n2ccsc2n1	-46	99	97	20
COC(CN(C)C(=O)c1ccc2c(c1)NC(=O)c1ccccc1S2)OC	5	103	103	16
Cc1ccc(-c2nc3cc(NC(=O)CC(C)C)ccc3o2)cc1Cl	-34	102	104	-132
COc1ccccc1CN(C)C(=O)CN1CCN(C/C=C/c2ccccc2)CC1	-5	99	102	-6
Cc1csc(-c2ccc(O)cc2)n1	4	101	105	101
Cc1cc(/C=C/c2ccc3cc(N(C)C)ccc3[n+]2C)c(C)n1-c1ccccc1	-3	109	140	-58
CN1C(=O)Cc2cc(S(=O)(=O)N3CCc4ccccc43)ccc21	-58	105	102	-4
Cc1[nH]c(C)c(S(=O)(=O)NCCc2ccccc2)c1C(=O)N1CCCC1	-11	100	102	-11
CC1CCc2c(sc3nc(CN4CCCC4)[nH]c(=O)c23)C1 (stereo unspecified)	0	104	104	7
CC(C)c1ccc(CCN)cc1	-15	·	·	-1

# (more compounds)
canonical_smiles	MenB inh	PV pol inh	PV pol inh intensity	MbtI inh
CS(=O)(=O)Nc1ccccc1C(=O)NC1CCCC1	7	98	99	i
CN1CCN(C(=S)NC(CC(=O)c2ccccc2)c2ccccc2)CC1 (stereo unspecified)	-17	102	103	·
CCOC(=O)Cc1csc(SCn2nnc3ccccc3c2=O)n1	-17	105	103	11
O=C(CC(SC1CCCCC1)C(=O)O)c1ccc(Br)cc1 (stereo unspecified)	-13	102	90	·
CCOCc1cc(-c2csc(N)n2)ccc1OC	-13	100	101	23
CNCC(O)c1ccc(O)cc1 (stereo unspecified)	2	98	102	-8
O=C1NC2(CCCCC2)C(=O)N1c1ccc(C(F)(F)F)cc1	-38	99	103	-14
O=C1NC(=O)C(CCCCO)N1 (stereo unspecified)	14	102	96	5
CC(C)c1ccc(CO)cc1	-21	99	95	-3
CC12NC(=O)CN1CCc1ccccc12 (stereo unspecified)	-5	100	104	15
CC1CN(C2CC(C)(C)NC(C)(C)C2)CCC1=O (stereo unspecified)	-23	104	109	·
Cc1ccc(NC(=O)N2CCOc3ccc(Cl)cc32)c(C)c1	9	100	100	-17
CC1Cc2ccccc2N1C(=O)Cn1nnc(-c2ccccc2F)n1 (stereo unspecified)	3	101	103	-26
CC(C)N(C(=O)COc1c(CO)cc(Br)cc1CO)c1ccccc1	0	100	94	0
C/C(=N\NCc1cn2ccccc2n1)c1ccccc1	-2	106	138	39

# Additional structures.
canonical_smiles	MenB inh	PV pol inh	PV pol inh intensity	MbtI inh
COc1ccc(C(C#N)N2N=C(C)CC2c2ccccc2)cc1OC (stereo unspecified)	-4	103	102	-2
C=CCNC(=O)c1cc(-c2ccc(Cl)c(Cl)c2)on1	10	102	109	-11
COc1cccc(C(=O)NCC(=O)NN)c1	-5	101	103	-7
CCOC(=O)C1=CN(c2ccc(C)cc2)C=C(C(=O)OCC)C1c1cccs1	-5	101	102	27
CC(C)N(C(=O)CSC1=NCCS1)c1ccccc1	·	102	103	1
CN(C)CCCn1cc(C2=C(c3c[nH]c4ccccc34)C(=O)NC2=O)c2ccccc21	-3	99&98	102&99	-8
